# KCNQ2 pot: KCNQ2 (rat) channel potentiation | O88943 | CHO-K1 KCNQ2, FluxOR thallium flux fluorescence; hits give high values | B-score at 10 µM | 310,000 tested, 0.54% active;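 active = fluorescence ratio B-score at least 3 SD of library B-scores, with initial fluorescence B-score within 3 SD, cut at about 5.3 in these data; same plate scores as AID 2156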;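 note: B-score of peak minus minimum over baseline fluorescence ratio after K+ and Tl+ stimulus; positive B-score means potentiation of KCNQ2 with more thallium influx and brighter signal; only the inactives scoring about 0 or higher are listed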
# Target sequence (O88943 whole entry, looked up): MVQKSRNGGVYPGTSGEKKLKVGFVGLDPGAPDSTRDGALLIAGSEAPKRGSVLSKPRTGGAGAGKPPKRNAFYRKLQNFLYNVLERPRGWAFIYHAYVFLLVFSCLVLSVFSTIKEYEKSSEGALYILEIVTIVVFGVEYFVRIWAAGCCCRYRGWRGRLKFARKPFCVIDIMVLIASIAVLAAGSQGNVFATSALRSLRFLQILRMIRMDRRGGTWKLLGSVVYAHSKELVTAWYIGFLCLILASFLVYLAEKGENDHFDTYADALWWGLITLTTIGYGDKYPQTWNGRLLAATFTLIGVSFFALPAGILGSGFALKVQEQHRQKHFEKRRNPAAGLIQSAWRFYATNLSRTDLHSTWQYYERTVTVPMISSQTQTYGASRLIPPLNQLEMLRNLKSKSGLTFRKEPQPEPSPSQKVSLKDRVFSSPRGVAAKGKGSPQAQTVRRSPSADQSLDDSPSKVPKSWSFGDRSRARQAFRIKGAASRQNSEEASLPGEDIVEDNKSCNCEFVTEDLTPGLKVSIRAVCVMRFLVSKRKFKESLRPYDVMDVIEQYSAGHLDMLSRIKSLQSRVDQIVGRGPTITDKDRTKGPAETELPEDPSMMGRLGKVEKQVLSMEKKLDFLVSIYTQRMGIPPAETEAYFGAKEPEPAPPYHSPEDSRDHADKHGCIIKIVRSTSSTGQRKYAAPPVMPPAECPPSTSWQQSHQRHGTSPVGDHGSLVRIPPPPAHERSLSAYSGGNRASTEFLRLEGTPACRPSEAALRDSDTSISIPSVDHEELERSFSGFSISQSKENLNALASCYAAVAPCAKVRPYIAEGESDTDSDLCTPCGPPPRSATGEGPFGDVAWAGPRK
# KCNQ2 pot baseline: recorded beside KCNQ2 pot, whose call it bears; B-score; compound at 10 µM; measured here: initial fluorescence intensity artifact check;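 brightness before thallium and not channel activity; 0 = typical well and far values either way flag optical interference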
# The depositor's hits bear a star.
# The opening two compounds (preview)
SMILES,KCNQ2 pot,KCNQ2 pot baseline
O=C(CCN1CCN(C/C=C/c2ccccc2)CC1)Nc1ccccc1F,0.65,-1.2
CCN(CC)S(=O)(=O)c1ccc2nc(CSc3nnnn3-c3ccc(O)cc3)[nH]c2c1,0.03,-0.33

# All compounds of this part, from the first entry:
SMILES,KCNQ2 pot,KCNQ2 pot baseline
O=C(CCN1CCN(C/C=C/c2ccccc2)CC1)Nc1ccccc1F,0.65,-1.2
CCN(CC)S(=O)(=O)c1ccc2nc(CSc3nnnn3-c3ccc(O)cc3)[nH]c2c1,0.03,-0.33
COc1cc(Nc2nc3ccc(Cl)cc3n3cnnc23)cc(OC)c1OC,1.7,-0.03
Fc1ccc(CN2CCN(c3ncccn3)CC2)cc1,2,-2
COc1ccc(NC(=O)CCn2c(=O)c3cccn3c3ccccc32)cc1,0.09,-0.97
CCN(CC)S(=O)(=O)c1cccc(C(=O)N2CC(O)CC2C(=O)OC)c1 (stereo not given),0.84,-0.1
Cc1nc2ccccc2n1CC(O)c1ccccc1 (stereo not given),1.5,1.9
COc1ccc(C(=O)NCCN=C2NS(=O)(=O)c3ccccc32)cc1,0.55,-1.2
O=C(Cn1nnc2ccccc21)OCC(=O)c1ccccc1,1.2,0.03
Cc1ccsc1/C=N/NC(=O)c1ccc2c(c1)OCCO2,1.2,-0.14
Cc1cccc(NS(=O)(=O)c2cccc(C(=O)N3CCCC(C(F)(F)F)C3)c2)c1 (stereo not given),0.73,-0.01
CC1(C)CNC(=O)CC(C)(C)N1O,1.4,-0.64

# Single records (already shown). Order of screens: KCNQ2 pot | KCNQ2 pot baseline
# Shown for `CCN(CC)S(=O)(=O)c1cccc(C(=O)N2CC(O)CC2C(=O)OC)c1` (stereo not given) : 0.84 | -0.1
# Shown for `COc1cc(Nc2nc3ccc(Cl)cc3n3cnnc23)cc(OC)c1OC` : 1.7 | -0.03
# Shown for `Cc1nc2ccccc2n1CC(O)c1ccccc1` (stereo not given) : 1.5 | 1.9
# Shown for `O=C(CCN1CCN(C/C=C/c2ccccc2)CC1)Nc1ccccc1F` : 0.65 | -1.2
# Shown for `Cc1cccc(NS(=O)(=O)c2cccc(C(=O)N3CCCC(C(F)(F)F)C3)c2)c1` (stereo not given) : 0.73 | -0.01

# More records follow.
SMILES,KCNQ2 pot,KCNQ2 pot baseline
Cc1nc2cc3sc(C)nc3cc2s1,1.1,-0.04
O=C(Nc1cnn(Cc2ccccc2)c1)c1cc2nc(-c3ccco3)cc(C(F)(F)F)n2n1,0.05,0.33
COc1ccc(C2/C(=C(\O)c3ccc4c(c3)OCCO4)C(=O)C(=O)N2c2nc(C)c(C(C)=O)s2)cc1 (stereo not given),0.01,0.86
NC(=O)c1ccccc1N/C=C/C(=O)c1ccc(Cl)cc1,1.3,0.02
O=C(Nc1ccc(S(=O)(=O)NC2CCCC2)cc1)c1cnccn1,0.43,-0.69
O=C(O)c1cccc(N/N=C/c2ccc(OC(F)(F)F)cc2)c1,1.9,-1.7
COc1ccc(/C=C(\NC(=O)c2ccco2)C(=O)Nc2ccc(C(C)=O)cc2)cc1,0.88,1.6
CCN(CC)c1ccc(/C=N/NC(=O)c2ccc3c(c2)OCCO3)cc1,0.28,-1.1
O=S(=O)(Nc1ccc(-c2cnco2)cc1)c1ccccc1,0.06,-0.03
CN=c1scc(C)n1/N=C/c1ccc(O)c(O)c1O,1.1,-2.5
CCN1CCN(CCNC(=O)Cn2c(=O)c3cccn3c3ccc(F)cc32)CC1,0.27,-1
CCC(=O)N1CCN(c2ccc(Cl)cc2NC(=O)c2ccc([N+](=O)[O-])o2)CC1,0.22,-0.44

# Arranged by the number under KCNQ2 pot (ascending): some entries from above
SMILES,KCNQ2 pot,KCNQ2 pot baseline
CCN(CC)c1ccc(/C=N/NC(=O)c2ccc3c(c2)OCCO3)cc1,0.28,-1.1
Cc1nc2cc3sc(C)nc3cc2s1,1.1,-0.04
NC(=O)c1ccccc1N/C=C/C(=O)c1ccc(Cl)cc1,1.3,0.02

# The results go on:
SMILES,KCNQ2 pot,KCNQ2 pot baseline
CCO[C@H]1OC(C(=O)NCc2ccccc2)=C[C@@H](C2CC2)[C@@H]1CCCO,0.03,0.02
O=C(NC(=S)N1CCCCCC1)c1ccccc1Cl,4.3,0.13
COc1ccc(-c2csc(NC(=O)C3COc4ccccc4O3)n2)cc1OC (stereo not given),1.4,1.2
COc1ccc(-c2n[nH]c(=S)n2Cc2ccccc2)cc1,0.08,-0.06
Cc1ccccc1C(=O)Nc1ccnn1C1CCN(Cc2ccc(CO)o2)CC1,1.1,-0.93
CCOC(=O)c1cnc(SCC(=O)Nc2nc(C)c(C)s2)nc1N,1.5,-1.2
COc1ccc(S(=O)(=O)Oc2c(OC)cc(C(=S)N3CCOCC3)cc2OC)cc1,1.2,-0.36
Cc1ccc(NC(=O)Cc2nnc(SCC(=O)NC3CCCC3)n2C)cc1,1,-0.05
Cc1c(-c2c(C#N)c(N)nc3c2CCCCCC3)cnn1C,0.41,0.06
O=C(CCc1ccccc1)OCCOC(=O)CCc1ccccc1,0.01,-0.46
COc1ccc(NC(=O)NC(C)C2CC3CCC2C3)cc1 (stereo not given),2,-0.78
CN1c2ccccc2Sc2cc(N)ccc21,1.9,0.2
N/C(=N\OC(=O)CCCCCN1C(=O)c2ccccc2C1=O)c1ccccn1,1.6,2.4
Cc1ccc(OC(C)C(=O)Nc2ccc(C)c(S(=O)(=O)Nc3ccc(C)cc3C)c2)cc1 (stereo not given),0.04,0.76
O=C(COC(=O)c1cc(-c2cccs2)nn1-c1ccccc1)Nc1ccc(Cl)c([N+](=O)[O-])c1,0.91,-1.2
Clc1cccc(Cl)c1C1=NOC(c2nnc(-c3ccccc3)o2)C1 (stereo not given),0.59,-0.59
Cc1ccc(NC(=O)CN(C)S(=O)(=O)c2cccc3cccnc23)cc1F,0.9,-0.47
CC(Oc1cc2oc(=O)c3c(c2cc1Cl)CCCC3)C(=O)NCCN1CCOCC1 (stereo not given),3.8,-1.9
Cc1cccc(NS(=O)(=O)c2ccc(C)c(C(=O)OCC(=O)Nc3cc(C)on3)c2)c1,0.09,-1.1
C#C[C@]1(OC(C)=O)CCC2C3CCC4=CC(=O)CC[C@@H]4C3CC[C@@]21C (stereo not given in full),0.05,1.3
Cn1c(N)c(C#N)c2c(c1=S)COC(C)(C)C2,0.57,-0.92
CCCN1C(=O)c2ccc(C(=O)Nc3ccc4c(c3)OCO4)cc2C1=O,0.41,-0.46
O=C(CN(c1ccccc1)S(=O)(=O)c1ccccc1[N+](=O)[O-])NN=C1CCCCCCC1,0.87,-1.7
Nc1nc(COc2ccccc2C=O)nc(Nc2ccccc2)n1,1.7,0.41
CC1CCN(CCCCOc2ccc(Br)cc2)CC1,0.14,-0.67
CCn1c(=NC(=O)CSCC(=O)Nc2nccs2)sc2ccccc21,0.22,1.8
CCCC(C(=O)c1ccccc1)n1cncn1 (stereo not given),0.11,1.1
CC(=O)Nc1ccc(S(=O)(=O)Nn2cnnc2)cc1,2.1,-0.63
COc1ccc2c(c1)nc(N)n2Cc1ccccc1,1.4,0.41
COc1cccc(Nc2nc(N)c([N+](=O)[O-])c(NCc3ccco3)n2)c1,1.2,-1.3
O=C(O)C1CCC(CNS(=O)(=O)c2ccc(Cl)cc2)CC1 (stereo not given),1.1,-1.1
COc1ccc(-c2nc(NC(=O)CCNC(=O)c3ccco3)sc2C)cc1,0.27,-0.64
CC(C)(C)OC(=O)NCCc1n[nH]c(=S)o1,0.58,2.2
Cc1ccc(N(CC(=O)Nc2cccc(N(C)S(C)(=O)=O)c2)S(C)(=O)=O)cc1,0.07,0
O=C(c1coc(=O)c(Br)c1)N1CCC(C(O)(c2ccccc2)c2ccccc2)CC1,0.72,0.44
COc1cccc(C(=O)N/N=c2\oc3c(OC)cccc3cc2C(=O)NCc2ccccc2)c1,0.29,0.61
COc1nc(Oc2ccc(=O)[nH]n2)nc(N2CCOCC2)n1,0.89,1.3
CN(C(=O)c1ccco1)c1nnc(-c2ccc(F)cc2)s1,0.27,0.95
COc1ccc(-c2nncnn2)cc1,0.92,-1.5
O=C(Nc1ccccc1)N1CCCc2ccccc21,0.77,-1.9
CCc1ccc(NC(=S)NC(=O)c2c(-c3ccccc3Cl)noc2C)cc1,0.06,0.25
COc1cc2nc(C(C)(C)C)oc(=O)c2cc1OC,0.17,0.85
CC1=C(C(=O)OC(C)(C)C)C(c2ccc(Br)cc2)NC(=O)N1CCCC(=O)O (stereo not given),0.54,-0.11
Cc1ccc2cc(-c3noc(C(C)(C)C)n3)c(=O)[nH]c2c1,0.69,0.03
CN(C)CCN(C(=O)c1ccc(C(=O)c2ccccc2)cc1)c1nc2cc3c(cc2s1)OCO3,1.1,0
CCCCCC(=O)N/N=C/c1ccccc1[N+](=O)[O-],2.2,0.13
CNc1cc(Cl)nc(SC)n1,0.82,0.35
CCOCC(=O)N1CCCC(C(=O)OCC)C1 (stereo not given),3.9,-0.07
Cc1ccc(OCC(=O)Nc2ccc(-c3nc4ncccc4o3)cc2)c(C)c1,0.95,-0.01
CC(=O)Nc1ccc(NC(=O)CC2CCCC2)cc1,0.03,0.13
Cc1cc(=O)c2cc(NC(=O)c3ccccc3Cl)ccc2[nH]1,0.3,-1.2
COc1ccc(-c2ccc(C(=S)N3CCN(C(C)=O)CC3)o2)cc1,0.15,0.46
CCOc1cc(NC(=S)NCCCN2CCOCC2)c(OCC)cc1NC(=O)c1cccc(C)c1,0.83,0.94
Cc1ccc(NC(=O)[C@H](C)NC(=O)C2CCN(C(=O)[C@@H](N)CC(C)C)CC2)cc1,0.68,0.51
CCOCCn1c(SCc2ccc(F)cc2)nc2c1c(=O)[nH]c(=O)n2C,0.39,-0.6
O=C(NCCc1cccc(Cl)c1)c1ccc(Cl)c([N+](=O)[O-])c1,0.38,-0.5
O=C(CSc1nc(-c2ccccc2)cc(C(F)(F)F)n1)NCCN1CCOCC1,0.19,0.46
O=C(NCc1ccc(F)cc1)C1CCN(S(=O)(=O)N2CCOCC2)CC1,0.97,-0.8
O=C1Nc2ccccc2C(=O)N2[C@H](c3ccccc3)[C@@H]3C(=O)N(Cc4ccccc4)C(=O)[C@@H]3[C@H]12,0.87,0.85
COc1ccccc1-c1nnc2sc(-c3cc4ccccc4o3)nn12,0.38,0.65

# Following part
SMILES,KCNQ2 pot,KCNQ2 pot baseline
CCOC(=O)c1ccc(OCc2c(C)noc2C)cc1,1.1,0
CCOc1cc(C#N)c(NC(=O)Cn2nnc3ccccc32)cc1OCC,0.42,0.05
CCOC(=O)N1CCN(C(=O)CSc2nnc(-c3cccc(OC)c3)o2)CC1,1,0.47
CSCCCN1CCCC(CO)(Cc2ccc(F)cc2)C1 (stereo not given),0.39,-1.4
Cc1ccc(-c2nc(CSCC(=O)NC3CCN(Cc4ccccc4)CC3)c(C)o2)cc1,0.88,-0.67
COc1cc(/C=C2/SC(=S)N(C)C2=O)ccc1OC(=O)c1ccco1,0.54,0.08
Oc1nc(Nc2ccc(Cl)cc2Cl)sc1/C=C1\C=Nc2ccccc21,1.2,1.6
O=C(CN1CCNCC1)Nc1ccccc1Cl,1.4,1
COc1ccc(Nc2nc(CN3CCOCC3)nc3sc4c(c23)CCC(C)C4)cc1OC (stereo not given),1.3,-0.38
COc1ccc(/C=C2\SC(N3CCc4ccccc4C3)=NC2=O)cc1OC,0.52,2.4
CC(=O)N(C)c1ccc(NC(=O)Cc2cccs2)cc1,0.29,-1.5
Cc1ccc(O)c(N=Cc2ccc(C)s2)c1,0.07,0.87
Nc1cc(C(F)(F)F)cc2c1SCC(=O)N2,0.31,1.3
CCn1c(CSc2nnc3ccccn23)nc2cc(C(=O)O)ccc21,0.22,4.5
Clc1ccc(-c2cnn3c(-c4ccncc4)ccnc23)cc1,0.04,-0.03
NC(=O)CSc1oc(-c2ccco2)nc1S(=O)(=O)c1ccc(F)cc1,0.09,-0.78
Cc1nc2n(n1)C(c1ccccc1)C1=C(CC(c3ccco3)CC1=O)N2 (stereo not given),0.31,0.06
Cc1ccc(SCCNS(=O)(=O)c2ccc(F)cc2)cc1,1.1,0.06
O=c1oc2ccccc2c(Nc2ccc(F)cc2)c1[N+](=O)[O-],1,-1.2
COc1cc(NC(=O)c2cc(C)no2)c(OC)cc1Cl,0.85,0.28
[O-][n+]1ccccc1SC/C=C/c1ccccc1,1.3,0.51
O=C(O)C1OC(Oc2cc3oc(-c4ccccc4)cc(=O)c3c(O)c2O)C(O)C(O)C1O (stereo not given),0.46,2.4
COc1ccc2ccccc2c1CNC(C)c1ccccc1 (stereo not given),1.4,0.18
Cc1ccc(/C=N/NC(=O)CNC(=O)c2ccc(C)c([N+](=O)[O-])c2)o1,0.33,0.52
CCO[C@H]1OC(C(=O)NCc2nc3ccccc3[nH]2)=C[C@@H](c2ccccc2)[C@@H]1CCCO,0.17,0.83
Cc1ccc(Sc2ccc(CO)cc2[N+](=O)[O-])cc1,0.33,-0.09
CCCC(=O)N1c2ccccc2C(N(C(C)=O)c2ccccc2)CC1C (stereo not given),0.69,0.98
CCCCN(C)CCn1c(=S)[nH]c2ccc(N3CCOCC3)cc2c1=O,0.75,-1.7
O=C1CSC(=S)N1CC1CCCO1 (stereo not given),1.4,-0.2
O=[N+]([O-])c1ccc2c(c1)nnn2-c1ccccc1,1.9,1.2
CCN(CC)S(=O)(=O)c1cccc(C(=O)Nc2ccc(S(=O)(=O)NC3=NCCCCC3)cc2)c1,1.3,-1.2
Cc1ccc(OC(=O)c2cc(C)nn2C(C)(C)C)cc1,0.07,-1.9
O=C(Nc1ccc(S(=O)(=O)NCCc2ccccc2)cc1)c1ccco1,0.15,0.27
CSc1nc(N)c(NC(=O)c2ccc(Br)o2)c(=O)[nH]1,1.2,-0.23
O=C(c1ccc(NC(=O)C(c2ccccc2)c2ccccc2)cc1)c1ccc(C(=O)O)c(C(=O)O)c1,1.2,-0.55
Cc1ccc(N2C(=O)NC(NS(=O)(=O)c3ccccc3)(C(F)(F)F)C2=O)cc1 (stereo not given),0.39,-1.4
Cc1cc(C)cc(C(=O)NCCC(=O)N2CCC3(CC2)NCCc2[nH]cnc23)c1,0.01,0.64

# Bioassay records deposited in PubChem by Johns Hopkins Ion Channel Center.

# A portion of the library; rates above refer to the full screens.
